Screens deposited in PubChem BioAssay by National Center for Advancing Translational Sciences (NCATS).
RE007 growth inh: less growth of the S. pombe RE007 Vpr strain; AID 651644; 0.21% of 360,000 active; S. pombe RE007 Vpr strain, BacTiter-Glo ATP luminescence, 24 h; control for the full effect not named in the record; Potency, µM (series often up to 92.2 µM), for inactives: at the highest dose activity change, negative = less growth; active = well fitted falling curve with a large enough effect; inconclusive = small, poorly fitted or top-dose-only effect; inactive = no such curve, though single readings can be large or run the other way;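 also: % is scaled to controls: 0 for no effect and ±100 for the full control effect; nearly all actives have a fitted effect of over 50% in size; the assay follows cell death caused by Vpr and the record does not say whether a fall means rescue or toxicity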
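Fission yeast strain RE007, carrying one chromosomally integrated HIV-1 vpr copy, was seeded at OD 0.01 in PMG+AL medium with 23 nL pinned compound. After 24 h at 30 °C and 99% humidity, viability was read by BacTiter-Glo luminescence.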
MARV entry inh: blocks Marburg virus binding to or entry into cells | Marburg virus pseudotyped entry inhibition, cell reporter; control for the full effect not named in the record; about a third of the inactives were read at about 46 µM | Potency, µM (highest dose often 37.8 µM), without a hit: top-dose activity change, negative = inhibition, hits mostly inhibitors | 1.8% of 300,000 active | AID 540276; active = well fitted inhibition curve with a large enough effect; inconclusive = small, poorly fitted or top-dose-only effect, or effect the other way; inactive = flat fitted curve, though single readings scatter; tested in HEK293 cells; about a fifth of its hits are not listed in these tables; also: % is scaled to controls: 0 for no effect and ±100 for the full control effect; luciferase read-out
Cruzain inh Det: inhibitors of Trypanosoma cruzi cruzain with detergent; AID 1478; 0.43% of 200,000 active; Potency, µM, for inactives: max response, negative = inhibition, most hits filed as inhibitors; purified cruzain, Z-FR-AMC fluorescence, 0.01% Triton; P25779; active = well fitted curve in the direction sought with a large enough effect; inconclusive = small, poorly fitted or top-dose-only effect, or another doubt; inactive = no such curve, though single readings can be large; an effect the other way counts as inactive or inconclusive;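 also: plate controls were neutral wells for no effect and buffer without enzyme for full effect; nearly all actives have a fitted effect of over 40% in size; top concentration of the series not given in the record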
Target sequence (P25779 123-467 limits assumed): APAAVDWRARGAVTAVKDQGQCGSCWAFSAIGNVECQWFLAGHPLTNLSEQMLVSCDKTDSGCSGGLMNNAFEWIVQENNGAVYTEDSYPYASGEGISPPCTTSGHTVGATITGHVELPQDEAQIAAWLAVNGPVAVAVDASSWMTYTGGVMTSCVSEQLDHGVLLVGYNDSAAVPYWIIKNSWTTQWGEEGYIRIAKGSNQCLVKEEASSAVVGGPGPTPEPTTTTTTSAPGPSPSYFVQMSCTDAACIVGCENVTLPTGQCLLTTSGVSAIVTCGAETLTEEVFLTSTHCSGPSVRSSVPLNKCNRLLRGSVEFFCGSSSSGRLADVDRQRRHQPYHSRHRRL
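Steps: dispense cruzain (1.5 nM final) in acetate buffer pH 5.5 with DTT and 0.01% Triton X-100; pin-transfer compounds; incubate 15 min RT; add Z-FR-AMC (2 uM final); read fluorescence every 30 s, using the 60 s intensity change.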
NS1 function inh: blocks influenza NS1 protein function. S. cerevisiae slowed by influenza A NS1, growth recovery by OD600. Potency, µM (highest dose often 46.1 µM), for inactives: top-dose activity, positive = more growth. 0.4% of 270,000 active. AID 2326; also: actives are rising curves; nearly all actives have a fitted effect of over 50% in size
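In this qHTS, NS1 from influenza A is expressed in budding yeast, where it slows growth. Cells are switched from glucose to 2% galactose medium (pH 6.0, -URA), treated with compound, and growth recovery is read at OD600.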
StopGo reporter: lowers the luciferase signal of an FMDV 2A StopGo reporter. 1.2% of 410,000 active. human cells with a luciferase reporter of 2A StopGo recoding; control for the full effect not named in the record. Potency, µM (titrated, usually from 57.9 µM), for inactives: at the highest dose signal change, negative = less light; active = well fitted falling curve with a large enough effect; inconclusive = small, poorly fitted or top-dose-only effect; inactive = no such curve, though single readings can be large or run the other way; tested in HEK293T cells; also: % is scaled to controls: 0 for no effect and ±100 for the full control effect; nearly all actives have a fitted effect of over 45% in size; luciferase light after 4 h
Lassa entry inh: inhibitors of Lassa virus binding or cell entry; AID 540256; Lassa virus pseudotype entry inhibition, cell reporter; control for the full effect not named in the record; 1.2% of 300,000 active; Potency, µM (top dose mostly 37.9 µM), inactives show at the top dose activity change, negative = inhibition, usual class: inhibitors; active means well fitted inhibition curve with a large enough effect; inconclusive means small, poorly fitted or top-dose-only effect, or effect the other way; inactive means flat fitted curve, though single readings scatter; tested in HEK293 cells; also: % is scaled to controls: 0 for no effect and ±100 for the full control effect; nearly all actives have a fitted effect of over 50% in size; luciferase read-out
Cruzain noTriton: inhibitors of Trypanosoma cruzi cruzain without detergent. Potency, µM, without a hit: max response, negative = inhibition, usual class: inhibitors. P25779. purified cruzain, Z-FR-AMC fluorescence, no detergent. 2.3% of 200,000 active; active = well fitted curve in the direction sought with a large enough effect; inconclusive = small, poorly fitted or top-dose-only effect, or another doubt; inactive = no such curve, though single readings can be large; an effect the other way counts as inactive or inconclusive;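 also: plate controls were enzyme without inhibitor for no effect and buffer without enzyme for full effect; nearly all actives have a fitted effect of over 40% in size; top concentration of the series not given in the record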
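Purified cruzain at 1.5 nM, pre-incubated 15 min with compound at room temperature in 100 mM sodium acetate pH 5.5, 5 mM DTT, 0.00005% Triton X-100. Reaction started with 2 uM Z-FR-AMC; AMC fluorescence increase over 60 s gives rate.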
SARS PLpro yeast: blocks SARS-CoV papain-like protease in a yeast assay; S. cerevisiae expressing SARS-CoV PLpro, growth rescue; control for the full effect not named in the record; Potency, µM (titrated, usually from 32.9 µM), for inactives: at the highest dose activity, positive = growth rescue; 0.19% of 330,000 active; AID 485353; also: 0% is about no effect; nearly all actives have a fitted effect of over 55% in size; growth read by luminescence after 48 h
Starred values were filed as active, the others as inactive; ? = inconclusive; / = not tested or not shown; [ ] = another dose, or the depositor's remark. Unless noted, calls follow the shape of the dose curve; as a rule, active means well fitted rising curve with a large enough effect; inconclusive means small, poorly fitted or top-dose-only effect; inactive means no such curve, though single readings can be large or run the other way. Potency is read from the fitted curve at half-maximal effect.

A first look:
SMILES	RE007 growth inh	MARV entry inh	Cruzain inh Det	NS1 function inh	StopGo reporter	Lassa entry inh	Cruzain noTriton	SARS PLpro yeast
CC1(C)CC2(CC(c3ccc(F)cc3)c3ccc(O)cc3O2)NC(=S)N1 (stereo not drawn)	18%	/	/	-69%	?	/	/	4%
CCS(=O)(=O)c1nc(S(=O)(=O)c2ccc(C)cc2)c(NC)s1	/	-25%[46.1 µM]	-4.2%	/	5%	20%[46.1 µM]	0%	/
O=C(Nc1cnc2ccccc2c1)c1ccco1	-24%	?	0.9%	-107%	-21%	?	-7%	-12%
COc1ccccc1N=C1SCC(=O)N1Cc1ccco1	-16%	3%[46.1 µM]	/	4%	-12%	-20%	/	2%
Cc1ccc(Nc2c(-c3ccc(N(C)C)cc3)nc3nc[nH]n23)cc1	/	6%[46.1 µM]	-15%	/	39%[activator]	?	-7%	/
O=C(Nc1ccccc1C(=O)O)c1ccc(CN2C(=O)c3ccccc3C2=O)cc1	-19%	10%[46.1 µM]	/	9%	13%	3%[46.1 µM]	/	-1%

Results, from the first entry:
SMILES	RE007 growth inh	MARV entry inh	Cruzain inh Det	NS1 function inh	StopGo reporter	Lassa entry inh	Cruzain noTriton	SARS PLpro yeast
CC1(C)CC2(CC(c3ccc(F)cc3)c3ccc(O)cc3O2)NC(=S)N1 (stereo not drawn)	18%	/	/	-69%	?	/	/	4%
CCS(=O)(=O)c1nc(S(=O)(=O)c2ccc(C)cc2)c(NC)s1	/	-25%[46.1 µM]	-4.2%	/	5%	20%[46.1 µM]	0%	/
O=C(Nc1cnc2ccccc2c1)c1ccco1	-24%	?	0.9%	-107%	-21%	?	-7%	-12%
COc1ccccc1N=C1SCC(=O)N1Cc1ccco1	-16%	3%[46.1 µM]	/	4%	-12%	-20%	/	2%
Cc1ccc(Nc2c(-c3ccc(N(C)C)cc3)nc3nc[nH]n23)cc1	/	6%[46.1 µM]	-15%	/	39%[activator]	?	-7%	/
O=C(Nc1ccccc1C(=O)O)c1ccc(CN2C(=O)c3ccccc3C2=O)cc1	-19%	10%[46.1 µM]	/	9%	13%	3%[46.1 µM]	/	-1%
CC(=O)N1CCC(N(C(=O)Nc2ccc(C)c(C)c2)C2CCCC2)CC1	-18%	16%	-15%	-131%	18%	5%	-12%	1%
CC(=O)c1cc(C#N)c(NCCCN(C)C)nc1C	-8%	-8%[46.1 µM]	/	/	-8%	7%[46.1 µM]	/	1%
COC(=O)C1CCN(C(=O)/C=C/c2ccccc2)CC1	-3%	?	-0.7%	4%	38%[activator]	?	1%	13%
N#Cc1ccc(C(=O)Nc2ccn(-c3ccccc3)n2)cc1	-18%	?	-1.2%	-13%	-22%	1%	10%	-37%
CC1CCCC(NC(=O)COC(=O)Cc2c[nH]c3ccccc23)C1C (stereo not drawn)	-2%	-11%[46.1 µM]	/	/	0%	-9%	/	-1%
Cc1ccccc1/C=N/Nc1ccnc2cc(Cl)ccc12	-7%	?	?	-25%	?	?	?	-62%
COc1ccc(NC(=O)C2CC(=O)N(c3ccccc3C)C2)c(OC)c1 (stereo not drawn)	0%	?	/	4%	-8%	/	/	-2%
CC(=O)Nc1c2c(nn1-c1ccccc1C)CSC2	6%	/	/	-8%	25%	/	/	2%
O=C(CSc1nc(-c2ccc(Cl)cc2)[nH]c(=O)n1)Nc1cccc(Cl)c1	?	9%[46.1 µM]	/	5%	-21%	-30%	/	1%
COc1ccc(N2CCN(C(=O)CCNS(=O)(=O)c3ccc4c(c3)CCN4C(=O)C3CC3)CC2)cc1	/	/	-2.7%	/	-24%	-12%[46.1 µM]	23%	/
COc1ccc(NC(=O)CSc2nc3c(c(=O)[nH]2)CN(Cc2ccccc2)CC3)cc1Cl	/	?	-8.7%	/	-7%	-28%[46.1 µM]	2%	/
O=C(CSc1nc2c(c(=O)[nH]1)CN(Cc1ccc3c(c1)OCO3)CC2)Nc1ccc(F)c(F)c1	/	-16%[46.1 µM]	1.4%	/	8%	-2%[46.1 µM]	2%	/
COc1ccc(NC(=O)CSc2nnc(CNc3ccc(C)cc3)n2C)cc1	-4%	2%[46.1 µM]	/	2%	-3%	4%[46.1 µM]	/	0%
CC(=O)NC1(c2ccc(F)cc2)CCN(C(=O)c2c(F)cccc2F)CC1	0%	28%	/	/	0%	-9%	/	1%
C#CCn1cnc2c(cnn2-c2ccc(F)cc2)c1=O	/	3%[46.1 µM]	-1.2%	/	2%	4%[46.1 µM]	19%	/
Fc1ccccc1NC(=S)N1CCCCC1	26%	27%	-0.6%	22%	-1%	21%	-3%	-3%
CCOc1cc(/C=N/N=C2/NC(=O)C(CC(=O)O)S2)ccc1OCc1ccc(Cl)cc1Cl (stereo not drawn)	18%	?	/	1%	1%	?	/	-1%
CC(OC(=O)Cc1ccc(Br)cc1)C(=O)NC1CCCC1 (stereo not drawn)	5%	4%	/	/	-7%	-1%	/	?
CC(=O)/C(C#N)=C1\NC(=O)C(Cc2ccc(F)cc2)S1 (stereo not drawn)	-9%	?	/	2%	-6%	?	/	1%

Other records follow.
SMILES	RE007 growth inh	MARV entry inh	Cruzain inh Det	NS1 function inh	StopGo reporter	Lassa entry inh	Cruzain noTriton	SARS PLpro yeast
Cc1ccc(-n2c(C)cc(/C=c3/sc4nc5ccccc5n4c3=O)c2C)cc1	-6%	0.28µM*	0.5%	4%	1µM*	?	10µM*	-5%
O=C(COc1cccnc1[N+](=O)[O-])NCCc1ccccc1	-5%	?	/	0%	18%	5%	/	-1%
COc1ccc2c(CC(=O)OCC(=O)NC(=O)c3cccn3C)coc2c1	-23%	?	-8.6%	-19%	-3%	4%	0%	-12%
Clc1ccc(C(OCCN2CCCCC2)c2ccccc2)cc1 (stereo not drawn)	-20%[18.4 µM]	/	3.0%	/	?	/	-6%	/
Cc1cc(C)c(S(=O)(=O)NC(C)C)c(C)c1-n1cnnn1	5%	?	/	1%	92%[activator]	-26%	/	-1%
Cc1ccccc1NC(=O)Cn1c(=O)n(Cc2ccco2)c(=O)c2ccc(C(=O)NC3CCCC3)cc21	/	21%[46.1 µM]	-1.1%	/	-10%	14%[46.1 µM]	5%	/
COc1ccc(NC(=O)CS(=O)(=O)c2ccc(Br)cc2)cc1	9%	?	/	-5%	7%	16%[46.1 µM]	/	-1%
Cc1ccc(C)c(NC(=O)NNC(=O)c2cc3ccccc3cc2O)c1	-2%	?	/	2%	23%	-10%	/	-8%
O=S(=O)(c1ccc(F)cc1)N1CCC(O)(c2ccc3c(c2)OCO3)CC1	6%	-14%	4.5%	-49%	-23%	23%	1%	10%
O=C(NC1CCCC1)C(c1ccc(Cl)cc1)N1CCN(C2CCCCC2)CC1 (stereo not drawn)	-13%	/	/	2%	-11%	/	/	2%
COCc1cc(=O)[nH]c2cc(NC(=O)C(C)(C)CCl)c(C)cc12	7%	-6%	0.0%	2%	-12%	-2%	0%	-1%
COc1cccc(CNc2nc3nc4c(c(=O)n3[nH]2)CCC4)c1	23%	?	1.3%	4%	-9%	0%	6%	-8%
O=C(Nc1nnc(CSCc2ccc(Cl)cc2)s1)c1cccc([N+](=O)[O-])c1	-17%	-6%	-1.5%	4%	0%	?	?	13%
CCOc1cc(Cl)c(S(=O)(=O)NCCCn2ccnc2)cc1Cl	0%	/	/	6%	20%	/	/	-1%
O=C(CN1C=NS(=O)(=O)c2ccccc21)Nc1ccccc1F	/	/	0.8%	/	-6%	19%[46.1 µM]	4%	/
Cc1ccc2nc(-c3ccc(S(=O)(=O)N4CCOCC4)cc3)cn2c1	/	/	-1.8%	2%	/	/	-3%	-1%
O=C(Nc1ccncc1NC(=O)c1cccc([N+](=O)[O-])c1)c1cccc([N+](=O)[O-])c1	-6%	-7%[46.1 µM]	/	/	-4%	?	/	0%
CC1CCN(S(=O)(=O)c2ccc3c(c2)CCN3C(=O)Nc2ccc(Br)cc2F)CC1	/	7%[46.1 µM]	-0.2%	/	-2%	/	12%	/
Cc1ccc(C(=O)NCCCN2CCOCC2)cc1N1CCCC1=O	13%	1%[46.1 µM]	2.5%	-8%	-4%	?	-4%	4%
COc1ccc(NC(C)=O)cc1S(=O)(=O)NC1CCSc2ccccc21 (stereo not drawn)	6%	-2%[46.1 µM]	/	-36%	13%	7%[46.1 µM]	/	-4%
CCN1CCc2c(sc3c2c(NCc2ccco2)nc2nnnn23)C1	-16%	?	-3.4%	1%	-9%	16%	0%	0%
CCC1(c2ccc(F)cc2)NC(=O)N(CC(=O)NCC(=O)Nc2cccc(C)c2C)C1=O (stereo not drawn)	-4%	0%[46.1 µM]	/	/	-11%	5%	/	-2%
CCCCOC(=O)C(NC(=O)c1ccccc1)=C(C)C	11%	13%	1.9%	-1%	-12%	1%	-1%	-7%
Cc1cc(=O)oc2c(C)c(OCC(=O)N(C)C)ccc12	-9%	10%	-10%	3%	9%	0%	-4%	-1%
CCCCOc1ccc(S(=O)(=O)NC(=O)NCc2ccc(OCCC)cc2)cc1	9%	4%	-0.3%	-22%	/	13%	25µM*	15%
CCOC(=O)C(NC(=O)c1cccc(Cl)c1)(Nc1nnc(C)s1)C(F)(F)F (stereo not drawn)	5%	8%	-1.5%	?	-17%	-4%	-10%	15%
CCC(CC)NC(=O)COC(=O)c1cc(SC)ccc1Cl	18%	15%[46.1 µM]	/	/	-7%	13%	/	1%
Cc1cc(C(=O)COC(=O)CN(C)S(=O)(=O)c2ccc(Cl)cc2)c(C)n1CC1CCCO1 (stereo not drawn)	14%	-2%	-0.8%	-4%	-12%	3%	18%	-3%
Cn1cc(C(=O)Nc2ccccn2)c(=O)c2ccccc21	20%	?	/	2%	23%	0%[46.1 µM]	/	1%
O=C(COc1ccc2ccccc2c1)N/N=C/C1CC=CCC1 (stereo not drawn)	-14%	3%	-7.4%	25%	-2%	19%	-8%	8%
